# A488 autofl – A488 region autofluorescence. max dye equivalency, M. compound autofluorescence, A488 spectral region, dye equivalency; active compounds read high. AID 591. 59,000 tested, 0.1% active; active = above 10 nM dye equivalent; inconclusive = 1 to 10 nM; inactive = 1 nM or less; about half of its hits are not listed in these tables;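 also: highest value over a series up to 38 µM; compound alone in buffer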
#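 Autofluorescence read at ex 480/em 540 nm after 15 min RT in 100 mM Tris pH 8.0; compound signal normalized to A488 standard series on each plate, reported as dye-equivalent concentration at each test concentration.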
# AID923 – qHTS Assay for Allosteric/Competitive Inhibitors of Caspase-1: Spectroscopic Profiling in AFC Spectral Region; compound fluorescence, AFC spectral region (405/520 nm); almost no hit is shown here; Potency, µM (series often up to 57.5 µM), for inactives: top-dose fluorescence increase, usual class: activators; 75,000 tested, 1.1% active; AID 923, 2007; active = well fitted activation curve with a large enough effect; inconclusive = small, poorly fitted or top-dose-only effect;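 also: potency is read from the fitted curve at half-maximal effect; 0% is about no effect; scaled to a free AFC standard on each plate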
#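 Titrations up to 57 uM read every 20 sec for 3 min (405/520 nm) with 50 nM caspase 1 and 5 uM Ac-WEHD-AFC, pH 7.5 HEPES buffer. Fluorescence-vs-time intercept gave baseline, scaled against on-plate AFC standard.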
# Resorufin autofl – compound fluoresces in the resorufin spectral region. Compound fluorescence, resorufin region 547/598 nm, buffer; active compounds read high. max dye-equivalent concentration, M. 59,000 tested, 0.04% active. AID 588; active = above 10 nM dye equivalent; inconclusive = 1 to 10 nM; inactive = 1 nM or less; a few of its hits are not listed in these tables; also: highest value over a series up to 38 µM
#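 Tris 100 mM pH 8.0; compound added, 15 min RT; CCD imager read, ex 547 nm/em 598 nm; signal normalized to resorufin standard curve (six concentrations per plate) as dye-equivalent concentration.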
# TSHR ag – TSH receptor (human) agonism; 73,000 tested, 0.48% active; Potency, µM (series often up to 57.1 µM), for inactives: top-dose activation, usual class: activators; HEK293-CNG-TSHR cells (CNG channel as cAMP sensor), membrane potential dye, cAMP; P16473; active = well fitted activation curve of enough size with the parental cells flat; inconclusive = any curve in the parental cells; inactive = parental cells flat and receptor cells flat or falling; also: potency is read from the fitted curve at half-maximal effect; % of control where 0% means no effect; weak receptor curves with flat parental cells got no call and are not listed
# Target sequence (P16473 whole entry, looked up): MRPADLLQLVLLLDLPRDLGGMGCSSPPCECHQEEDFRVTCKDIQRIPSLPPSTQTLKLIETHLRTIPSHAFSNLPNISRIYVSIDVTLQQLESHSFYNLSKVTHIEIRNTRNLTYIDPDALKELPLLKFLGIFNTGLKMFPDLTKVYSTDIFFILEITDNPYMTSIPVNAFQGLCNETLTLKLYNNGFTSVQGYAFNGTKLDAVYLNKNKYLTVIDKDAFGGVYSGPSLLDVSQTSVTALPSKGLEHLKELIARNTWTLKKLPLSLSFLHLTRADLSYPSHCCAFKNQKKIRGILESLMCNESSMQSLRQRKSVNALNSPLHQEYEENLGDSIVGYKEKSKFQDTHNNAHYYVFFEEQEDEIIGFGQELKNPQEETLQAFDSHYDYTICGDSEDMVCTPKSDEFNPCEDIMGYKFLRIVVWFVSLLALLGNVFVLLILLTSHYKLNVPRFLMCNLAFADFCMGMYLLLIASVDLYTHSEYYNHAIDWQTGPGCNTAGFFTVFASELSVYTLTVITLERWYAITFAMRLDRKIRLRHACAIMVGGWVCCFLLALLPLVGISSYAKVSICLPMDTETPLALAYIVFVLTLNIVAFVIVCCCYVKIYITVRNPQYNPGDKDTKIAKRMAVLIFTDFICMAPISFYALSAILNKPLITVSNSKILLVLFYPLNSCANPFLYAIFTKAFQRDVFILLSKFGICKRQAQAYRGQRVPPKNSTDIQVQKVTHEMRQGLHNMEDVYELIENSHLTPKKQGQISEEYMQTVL
#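 HEK 293 cells stably expressing TSHR and a cAMP-gated CNG channel; parental CNG-only cells as counterscreen. Cells preloaded 60 min with membrane potential dye plus 100 uM RO 20-1724, then compound 30 min; fluorescence read at 590 nm.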
# A647 autofl – A647 region autofluorescence. 59,000 tested, under 10 active. Compound fluorescence, A647 channel (570/671 nm), Tris buffer. max dye-equivalent concentration, M; active means above 1 µM dye equivalent; inconclusive means 0.1 to 1 µM; inactive means 0.1 µM or less;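 also: values scaled relative to a standard on each plate; highest value over a series up to 38 µM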
#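 Tris 100 mM pH 8.0; cpd + A647 stds pin-transferred; 15 min RT; CCD imager, ex 570/em 671. Output = A647-equivalent conc. per cpd conc.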
# The depositor's hits bear a star; i = inactive; u = inconclusive; x = no result given; [ ] = remark or other dose.
SMILES,A488 autofl,AID923,Resorufin autofl,TSHR ag,A647 autofl
Cc1ccc(OCC(=O)Nc2ccc3c(c2)nc(CCN2CCOCC2)n3C)cc1,i,-1.5%,i,u,9.4e-09
N#Cc1nc(Cc2cccc3ccccc23)oc1NCc1ccc2c(c1)OCO2,i,0.4%,i,7%,1e-09
COc1ccccc1N(CC(=O)Nc1ccc(F)c(F)c1)S(C)(=O)=O,i,-1.8%,i,5%,1.2e-08
COc1ccc(N2CCN(Cc3nc4c(c(=O)[nH]c(=O)n4C)n3CC(C)=O)CC2)cc1,x,1.7%,x,2%,x
O=C(NCC(=O)N(c1ccc(F)cc1)C(C(=O)NCC1CCCO1)c1ccccc1)c1ccco1 (stereo not drawn),i,-0.6%,i,-1%,1.7e-09
CCOc1ccc(N(CC(=O)NCc2cccs2)S(=O)(=O)c2c(C)noc2C)cc1,x,-1.8%,x,32µM*,x
O=C(CN1CCN(Cc2ccccc2Cl)C1=O)NC1CCCCCCC1,i,0.5%,i,u,1.4e-09
NC(=O)C1CCN(C(=O)c2cc3n(n2)C(C(F)(F)F)CC(c2ccco2)N3)CC1 (stereo not drawn),x,3.3%,x,-5%,x
Cn1nc(C(=O)Nc2ccc(S(=O)(=O)N3CCCCC3)cc2)ccc1=O,i,1.3%,i,0%,2.5e-08
COc1cc(NC(=O)c2cc3ccccc3o2)c(OC)cc1Br,x,3.3%,x,27%,x
CC(C)C(c1nnnn1Cc1cccs1)N1CCN(c2ccccc2)CC1 (stereo not drawn),i,-0.2%,i,u,1.1e-09
N=c1n(Cc2ccccc2)c2ccccc2n1CC(O)COc1ccccc1 (stereo not drawn),i,-0.8%,i,17%,5.3e-09
CCN(CC(=O)NCc1ccc(F)cc1)CC(O)COCc1cccc(OC)c1 (stereo not drawn),i,-0.8%,i,16%,3.1e-08
COC(=O)c1sc2ccccc2c1N,x,5.2%,x,-1%,x
CCCc1cc(=O)[nH]c(SCC(=O)N2CCN(S(=O)(=O)c3ccc(C)cc3)C2)n1,x,-1.5%,x,3%,x
CCCCNC(=O)CN1CCC2(O)CCCCC2C1c1ccccc1OC (stereo not drawn),i,-0.1%,i,u,1.7e-09
Cn1c(=O)[nH]c(=O)c2c1nc(N1CCNCC1)n2Cc1cccc2ccccc12,i,-3.1%,i,-5%,1.2e-08
CSc1ccc(C2C(C#N)=C(N)N(c3ccccc3)C3=C2C(=O)CCC3)cc1 (stereo not drawn),i,3.7%,i,-7%,1.3e-08
C[C@@]12CC[C@@H]3c4ccc(O)cc4C[C@H](CCCCCCCCCS(=O)CCCC(F)(F)C(F)(F)F)[C@H]3[C@@H]1CC[C@@H]2O (stereo partly drawn),x,-0.9%,x,-1%,x
Cc1cccc(NC(=O)CC(C)(C)C)c1,i,-0.1%,i,1%,4.1e-08
Cn1cccc1C(=O)N1CCC2(CC1)CN(C(=O)Nc1cccc(F)c1)C2,i,1.8%,i,3%,1.3e-09
CCOC(=O)c1ccc2nc(NC(NC(C)=O)(C(=O)OC)C(F)(F)F)sc2c1 (stereo not drawn),i,x,i,x,1e-09
CCOC(=O)N1CCN(CC(=O)Nc2ccc(C)c(Br)c2)CC1,i,0.2%,i,u,3.8e-08
CCN(C(=O)c1cc2cc3ccc(C)cc3nc2o1)c1ccc(OC)cc1,i,0.2%,i,u,1.1e-08

# Single records, from the list above:
# Cn1c(=O)[nH]c(=O)c2c1nc(N1CCNCC1)n2Cc1cccc2ccccc12 is entered as A488 autofl: i; AID923: -3.1%; Resorufin autofl: i; TSHR ag: -5%; A647 autofl: 1.2e-08
# COC(=O)c1sc2ccccc2c1N is entered as A488 autofl: x; AID923: 5.2%; Resorufin autofl: x; TSHR ag: -1%; A647 autofl: x

# Further results
SMILES,A488 autofl,AID923,Resorufin autofl,TSHR ag,A647 autofl
CCN1C(=O)c2cccc3c(S(=O)(=O)NC(Cc4c[nH]c5ccccc45)C(=O)O)ccc1c23 (stereo not drawn),i,1.2%,i,19%,7.7e-09
Cc1onc(-c2c(F)cccc2Cl)c1C(=O)N[C@H]1C(=O)N2[C@H]1SC(C)(C)[C@H]2C(=O)O,i,0.7%[25.7 µM],i,-1%[25.6 µM],1.6e-09
Cc1cc(NC2C3CC4CC(C3)CC2C4)n2ncnc2n1 (stereo not drawn),i,0.8%,i,18%,4e-08
CCOC(=O)COn1c(=O)c(-c2ccc(OC)c(OC)c2)[n+]([O-])c2ccccc21,i,x,i,x,4.2e-09
COc1ccc(CCNC(=O)C2CCCN(Cc3nc(-c4cccc(Cl)c4)oc3C)C2)cc1OC (stereo not drawn),i,-1.7%,i,7%[11.4 µM],1e-09
NC(=O)c1cc(N)ccc1N1CCCC1,i,3.5%,i,3%,5e-09
CCCc1nc2ccccc2c(=O)n1/N=C/c1c(C)[nH]n(-c2ccc(C)cc2)c1=O,i,-0.7%,i,11%,2.1e-08
O=C(CSc1nnc(-c2cccnc2)n1Cc1ccco1)Nc1nc(-c2ccc(F)cc2)cs1,i,2.2%,i,x,1e-09
CCOC(=O)[C@H](N)/C=C(\C)CP(=O)(O)O,x,-2.0%,x,-3%,x
CS(=O)(=O)c1ccc(CNC(=O)[C@@H]2C[C@H]2[C@@H](NP(=O)(c2ccccc2)c2ccccc2)c2ccccc2)cc1,x,-2.3%,x,u,x
Cc1oc(-c2ccc(Cl)cc2)nc1CN1CCCC(C(=O)N2CCc3ccccc32)C1 (stereo not drawn),i,-0.3%,i,-1%[11.4 µM],1.5e-09
Clc1cc2c(c(Cn3cnc4ccccc43)c1)OCOC2,i,0.3%,i,u,1.6e-09
CC1(C)C(=O)N(CCN2CCC(C(=O)c3ccc(F)cc3)CC2)c2ccccc21,i,-0.8%,i,14%,2.2e-08
COc1c[nH]n(C2CCCCC2)c(=O)c1=O,x,1.2%,x,8%,x
Clc1ccc(-n2ncc3c(NCCCn4ccnc4)ncnc32)cc1,i,x,i,x,1.7e-09
CC(=O)NC(c1ccccc1)c1nc2ccccc2[nH]1 (stereo not drawn),i,-1.0%,i,-3%,1e-09
Cc1cccc(C(=O)OCc2cc3ccccc3[nH]c2=O)c1,i,-0.5%,i,x,1e-09
CC(C)(C=O)Cc1cc(C(C)(C)C)c(O)c(C(C)(C)C)c1,i,-1.2%,i,u,2.9e-08
CCOC(=O)c1[nH]c(C)c(C(=O)NCc2ccc(C)cc2)c1C,x,2.2%,x,-2%,x
COc1ccc(OC)c(NC(=O)Cc2nn(C)c(=O)c3ccccc23)c1,i,-0.2%,i,20%,4.6e-08
CC(=O)Nc1cccc(-c2nc3ccccc3c(=O)o2)c1,i,1.3%,i,-4%,1e-09
O=C(CSc1nnc2scc(-c3ccc(F)cc3)n12)NCc1ccco1,i,0.6%,i,4%,1e-09
COc1ccc(CNC(=O)c2c(C)cc(=O)oc2C)cc1OC,i,x,i,x,1.9e-08
COc1ccc(N2C(=O)C3CCCN3C2c2cccc(OC)c2)cc1 (stereo not drawn),x,5.5%,x,4%,x

# The closing 4 compounds of the section before open the next one:
SMILES,A488 autofl,AID923,Resorufin autofl,TSHR ag,A647 autofl
CC(=O)Nc1cccc(-c2nc3ccccc3c(=O)o2)c1,i,1.3%,i,-4%,1e-09
O=C(CSc1nnc2scc(-c3ccc(F)cc3)n12)NCc1ccco1,i,0.6%,i,4%,1e-09
COc1ccc(CNC(=O)c2c(C)cc(=O)oc2C)cc1OC,i,x,i,x,1.9e-08
COc1ccc(N2C(=O)C3CCCN3C2c2cccc(OC)c2)cc1 (stereo not drawn),x,5.5%,x,4%,x
COc1ccc(-n2nnc3c(=O)n(Cc4cccc(C)c4)cnc32)cc1,i,0.6%,i,u,1e-09
CCOC(=O)C1CCN(C(=O)Nc2ccc(Cl)cc2Cl)CC1,i,1.7%,i,1%,4.9e-08
O=C(CSC1=NCCS1)N1CCOCC1,i,-2.0%,i,-8%,1e-09
CCn1c(C)nc2cc(C(=O)n3cc(C(=O)c4cc(F)ccc4O)cn3)ccc21,i,1.1%,i,-4%,4.3e-09
CCCCOCC(O)CN1CCN(C(C)=O)CC1 (stereo not drawn),i,-0.7%,i,13%,2.7e-08
COc1ccc(C(=O)CSc2nnc(-c3ccco3)n2C)cc1,i,-0.3%,i,u,2e-09
O=C(c1ccc(CNc2c(N3CCOCC3)c(=O)c2=O)cc1)N1CC=C(c2ccccc2)CC1,x,3.7%,x,0%,x
CCC(C)N(CCNC(=O)CC1Oc2ccc(C)cc2NC1=O)C1CCCCC1 (stereo not drawn),x,-2.2%,x,5%,x
CCOC(=O)c1cnc2c(C(=O)OC)cccc2c1NCCN1CCOCC1,i,1.6%,i,-2%,3.5e-09
COC(=O)c1ccc(Oc2nc(C)cc(Oc3ccccc3)n2)cc1,i,0.4%,i,11%,3.3e-09
CCCC[C@@H]1C[C@H]1C(NC(=O)c1ccccc1)c1ccc(C(F)(F)F)cc1 (stereo partly drawn),x,1.3%,x,u,x
COc1ccc(C(=O)Nc2ccccc2)cc1[N+](=O)[O-],x,0.5%,x,u,x
CC(=O)NC(Cc1c[nH]c2ccccc12)C(=O)OCC(=O)Nc1ccc2c(c1)OCO2 (stereo not drawn),i,-0.7%,i,-4%,5.2e-09
CCn1c(SCC(=O)c2ccccc2)nnc1-c1cc2cc(Br)ccc2o1,i,-1.6%,i,u,3.4e-09
CCOc1ccc(NS(=O)(=O)c2ccc(SC)cc2)cc1,i,0.7%,i,34%,5e-09
Cc1ccc(SCc2cc(=O)[nH]c(N3CCN(Cc4ccc5c(c4)OCO5)CC3)n2)cc1,i,1.0%,i,u,1e-09
Cc1c(NC(=O)N2CCCCCC2)c(=O)n(-c2ccccc2)n1C,i,-1.4%,i,10%,1e-09
Cc1cc(C)c(NC(=O)c2cc3c(nc4sccn43)s2)c(C)c1,i,4.0%,i,-1%,5.6e-09
Cc1ccc2nc(NC(=O)CN3CCOCC3)sc2c1,i,-0.9%,i,3%,7.7e-08
Cn1c(C(=O)N2CCCC(C(=O)NCCc3ccccc3)C2)cc2sccc21 (stereo not drawn),i,-5.8%,i,13%[11.4 µM],1.8e-08
COc1ccccc1CNc1cc(-c2ccoc2)ncn1,i,5.3%,i,x,1e-09
CCCC(=O)OCCNC(=O)c1cc2ccccc2oc1=O,x,-1.2%,x,5%[11.4 µM],x
CC(=O)NCCNc1nc(-c2cccc(NS(C)(=O)=O)c2)nc2ccccc12,i,0.6%,i,17%,1e-09
COc1ccc(Nc2nc(C)cc(C)c2C#N)cc1,i,3.2%,i,3%,1e-09
COc1ccc(OC)c(C2=C[N+](=O)C(C)(C)C(C)(C)N2[O-])c1,i,1.3%,i,-1%,2e-09
Cc1ccc(Cn2ccc(NC(=O)c3cc(-c4ccc(F)cc4)on3)n2)cc1,i,0.3%,i,-3%,2.5e-08
CN1CCc2nc(SCC(=O)Nc3ccc(Cl)cc3)c(C#N)cc2C1,i,x,i,x,2.8e-08
CCNc1nc(Oc2ccc(=O)n(-c3ccccc3)n2)nc(N2CCOCC2)n1,i,-0.5%,i,1%,3.3e-08
Cc1ccc(-c2nnn(CC(=O)N(Cc3ccccc3)C(C(=O)NC3CCCC3)c3ccncc3)n2)o1 (stereo not drawn),i,1.8%,i,u,5.4e-09
CC12CN3CC(C)(CN(C1)C3c1ccc3ccccc3c1O)C2=O (stereo not drawn),x,-1.6%,x,11%,x
COCC(=O)Nc1nnc(C2CCCCC2)s1,i,1.4%,i,-18%,1e-09
Cc1nc(N2CCOCC2)c2oc3ccccc3c2n1,i,1.1%,i,8%,4.9e-08
CN1CCN(C(=O)C2C3C=CC(C3)C2C(=O)O)CC1 (stereo not drawn),i,-2.0%,i,-3%[11.4 µM],1.5e-08
COCCN(Cc1ccccc1)P(=O)(O)c1ccccc1OCC(=O)O,i,x,i,x,2.1e-09

# Assay outcomes deposited in PubChem BioAssay by National Center for Advancing Translational Sciences (NCATS).

# Only part of the results is shown; rates above refer to the full screens.
